Screening results deposited in PubChem BioAssay by Fisher Drug Discovery Resource Center.
NPYLR7 ag: agonists of mosquito NPYLR7 receptor, primary screen, cell-based, Aedes aegypti, calcium fluorescence, mosquito biting behavior. HEK293T NPYLR7/Galpha15, GCaMP6s calcium fluorescence. activation, % at 10 µM. 270,000 tested, 0.15% active. Aedes aegypti neuropeptide Y-like receptor 7 (NPYLR7); in the data active = activation above about 40%;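 also: 0% = vehicle and 100% = reference agonist at the receptor; some compounds past the cut are filed as inactive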
NPYLR7 ag max-min: also measured in NPYLR7 ag; calls as there; activation, %; measured here: Max-Min RFU normalised activation; some inactives read as strong as hits;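 span of the calcium signal over five minutes; 0% = vehicle and 100% = native peptide agonist; compound fluorescence can raise it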
The depositor's hits bear a star.

Compound,NPYLR7 ag max-min,NPYLR7 ag
CC(C)CNC(=O)c1ccc2c(=O)n(C(C)C)c3nn(Cc4ccc(Cl)cc4)c(=O)n3c2c1,0.0,2.2
CC(C)c1ccc(-c2csc(NC(=O)c3cnccn3)n2)c(C(C)C)c1,18.1,17.8
CCCc1cc(=O)n(CC(=O)Nc2cccc(OC)c2)c(-n2nc(C)cc2C)n1,-3.7,-6.5
O=C(O)CCc1nc2ccccc2oc1=O,-4.0,-3.9
COc1ccc(C(=O)N2CCC(C(=O)NC3CCCC[C@H]3NC(=O)c3ccccc3C)CC2)cc1 (stereo partly specified),7.6,5.5
O=C(CN1CCCC1)N1N=C(c2cccs2)CC1c1ccc(F)cc1 (stereo unspecified),7.2,-3.7
CC1CN(C(=O)CCCCSc2nnc(Cc3ccccc3)n2-c2ccccc2)CCN1C(=O)c1ccc(Br)cc1 (stereo unspecified),11.2,-0.8
Cc1cc(S(=O)(=O)N(C)C2CCN(C(C)C)CC2)ccc1Br,2.1,1.3
Cc1csc(CN2CCN(C)C3(CCN(C(=O)CC(C)(C)C)CC3)C2)n1,-1.1,2.5
O=C(NCCc1ccccc1)c1cc(NC(=O)C23CC4CC(CC(C4)C2)C3)ccc1N1CCCCC1,-0.7,-7.6
COc1cn(CC(N)=O)c(CN2CCN(C(C)=O)CC2)cc1=O,-1.5,0.3
Cn1c(SCC(=O)C(C)(C)C)nc2sc3c(c2c1=O)CCCC3,-2.6,-2.7
CN1C(=O)c2ccc(N)cc2C1=O,4.5,3.0
Cc1c(-c2ccc(F)cc2)[nH]c2ccc(CNC(=O)c3cccnc3)cc12,2.8,10.0
O=C(Cn1c2ccccc2c(=O)c2ccccc21)NCc1ccco1,-8.1,-4.1
CC(C)c1nc(C2(NCc3cc(Cl)nc(Cl)c3)CCCC2)no1,-0.4,0.4
CCNC(=O)C(C)(C)n1cc(-c2ccc3c(c2)OCO3)cn1,8.2,5.4
O=S(=O)(c1ccc2ccccc2c1)N1CCNCC1,6.3,7.0
CCOc1ccc(C#N)cc1NCc1nc(Cc2ccccc2)no1,0.4,1.1
NC(=O)c1csc(-c2cc(NC3CCCC3)nc3[nH]ccc23)n1,16.3,17.5
COCCN(Cc1cc(NC(=O)c2ccccc2Cl)ccc1N(C)C)C(=O)Nc1cccc(F)c1,2.4,-1.2
OCC1=CC[N+]2(Cc3ccccc3)CCC(O)[C@@H]12 (stereo partly specified),0.8,2.1
COc1ccccc1N1CCN(C(=O)c2cc(-c3ccc([N+](=O)[O-])cc3)nn2-c2ccccc2Cl)CC1,2.3,-1.1
CSc1ccc(NC(=O)CCc2nc3sc4c(c3c(=O)[nH]2)CCCC4)cc1,29.9,-1.0
Cc1ccccc1C(NC(=O)C1CCN(CCCOc2ccccc2)CC1)c1cnccn1 (stereo unspecified),-11.3,-8.7
O=C(NC1CCCN(Cc2ccc(Cl)cc2)C1)c1cnc2ccccn2c1=O (stereo unspecified),12.4,22.6
CN(C)S(=O)(=O)c1ccc2c(c1)oc(=O)n2C1CCOC1=O (stereo unspecified),5.6,11.3
O=C(CN1CN(c2ccccc2)C2(CCN(S(=O)(=O)c3cccc(C(F)(F)F)c3)CC2)C1=O)NCc1ccc2c(c1)OCO2,8.7,6.8
CCOC(=O)C1(CCc2ccccc2)CCN(C(=O)NC2CCCCC2)CC1,7.7,7.5
COC(=O)c1sccc1S(=O)(=O)N(Cc1cccs1)Cc1ccccc1OC,6.6,6.0
CC(=NNc1ccc(F)cc1F)c1ccco1,0.3,1.0
Cc1nc(C(=O)N2CCCC(C(=O)c3cccc(OC(C)C)c3)C2)cs1 (stereo unspecified),-1.2,1.2
CCc1nc2cc(NC(=O)N3CCCC(CO)C3)ccc2o1 (stereo unspecified),20.7,-0.2
Cc1ccc(-c2nc3ccc(Br)cn3c2NC(C)(C)C)cc1,3.6,-3.3
COc1ccc(Br)cc1C=C1NC(=S)NC1=O,12.0,3.4
O=C(O)c1cc2c(s1)CCS(=O)(=O)C2,4.7,7.7
C[C@@]1(O)CCN(C(=O)CN2CCOC2=O)C[C@@H]1Cc1ccccc1,-1.1,0.4
O=C(C=Cc1cc(Cl)ccc1Cl)NCc1nnc2ccccn12,7.1,1.2
CCOc1ccc(C(C)NCc2nc3ccc(Cl)cc3c(=O)[nH]2)cc1OCC (stereo unspecified),-4.8,-4.9
COc1cc(C=NNc2ncc(Cl)cc2Cl)cc(OC)c1,-0.8,1.8
COc1cn(CC(=O)Nc2c(C)cc(C)cc2C)c(CN2CCN(c3ccc(F)cc3)CC2)cc1=O,1.4,0.9
C=CCNC(=S)NNc1nncc2ccccc12,10.2,17.0
Cc1ccccc1NC(=O)N1C[C@@H](O)[C@H](NCCc2cnc[nH]2)C1,5.2,16.1
Cc1c(C(=O)N2Cc3cnc(C(C)(C)C)nc3C2)cnc2ccnn12,4.9,16.2
COC(=O)CCc1ccc(-c2cncs2)cc1,2.5,6.9
Cn1ncc(Nc2ccc(N3CCSCC3)cc2)c(Cl)c1=O,2.3,5.2
O=C(CSc1ncnc2c1nnn2Cc1ccccc1F)OCc1ccccc1,12.5,16.3
Cc1ccc(Cl)cc1NC(=O)CN1CCN(C(=O)C2CCCO2)CC1 (stereo unspecified),4.5,0.4
O=C(Cn1c(-c2ccc([N+](=O)[O-])s2)nc2ccccc21)N[C@H]1C[C@H]2CC[C@@H]1C2,0.9,5.5
O=C(N=Nc1c(O)[nH]c2ccccc12)c1cccnc1,0.9,10.7
O=C(C1c2ccccc2Oc2ccccc21)N1CCN=C1SCc1cccnc1,-3.4,-2.0
CC(C)CCn1c(CN2CCc3ccccc3C2)nc2c1c(=O)n(C)c(=O)n2C,27.3,0.0
CC1CCN(C(=O)c2cc(-c3ccc(F)cc3)nc3cc(C(C)(C)C)nn23)CC1,-1.8,-2.6
O=C(CNC(=O)c1ccccc1)NCC(=O)N1CCOC(COCc2c(Cl)cccc2Cl)C1 (stereo unspecified),0.7,1.7
CCS(=O)(=O)N(C)[C@H]1c2cc(C#N)ccc2OC(C)(C)[C@@H]1O,-13.0,-8.0
CCn1c(CC=Nc2ccccc2)[n+](CC)c2cc(Cl)c(Cl)cc21,1.0,1.7
CO[C@H]1CN(C(=O)c2cc3ccccc3c(=O)o2)[C@@H]2CC[C@@H](OC)[C@H]1C2,28.2,27.9
COC(=O)C1=C(C)NC(C)=C(C(=O)OC)C1C(=O)OC,6.2,6.7
COc1cc(S(=O)(=O)N2CCN(c3ccccc3C)CC2)ccc1Br,1.3,0.3
CC1CCCN(C2=Nc3c(Cl)cc(Cl)c4cccc2c34)C1 (stereo unspecified),-4.5,2.1

Going on with the list.
Compound,NPYLR7 ag max-min,NPYLR7 ag
CCN(CC1CCCN(CCc2cccc(OC)c2)C1)C(=O)c1cc(C)nc(C)n1 (stereo unspecified),1.3,2.0
CCS(=O)(=O)c1ccc2oc(-c3c(C)cccc3N)nc2c1,-7.4,-0.2
CCOC(=O)C(c1ccc(OC)c(OC)c1)C1C=CC(NC(=O)/C(C)=C/c2ccccc2)C1 (stereo unspecified),2.9,4.9
CC1CN(C2CCOC2=O)c2ccccc21 (stereo unspecified),1.3,5.3
CC(C)c1nc(SCC(=O)NC(C)c2ccc(Cl)c(Cl)c2)n[nH]1 (stereo unspecified),0.8,3.3
FC(F)(F)c1ccc(N2CCN(c3nc(-c4ccc(Oc5ccccc5)cc4)nc4ccccc34)CC2)nc1,3.4,-0.8
O=C(N[C@@H]1C[C@H]2CC[C@@H]1C2)c1ccc(SCc2ccccc2)nc1,-13.7,-6.3
COCCNC(=O)C1(C)Cc2c(-c3ccc(NC(C)=O)cc3)ccnc2O1 (stereo unspecified),9.7,-0.9
Cc1ccc(S(=O)(=O)NCC(Nc2cccc(Cl)c2)c2ccccc2)cc1 (stereo unspecified),6.6,7.2
CCCCC(O)CN(Cc1c(CC)nn(-c2ccccc2)c1Oc1ccccc1)CC1CCCO1 (stereo unspecified),11.6,5.8
O=C(Nc1ccc(Cl)cc1)Nc1cc(C(F)(F)F)ccc1Cl,-8.9,-5.9
Fc1cccc(Cl)c1Cc1noc(/C=C/c2ccc(Br)cc2)n1,-10.6,-7.8
O=C(CC1CSc2nc3[nH]ncc3c(=O)n21)Nc1ccc(Cl)c(Cl)c1 (stereo unspecified),17.7,4.5
C=CCCC(O)CN(CCN1CCOCC1)Cc1ccc(OC)cc1 (stereo unspecified),0.7,-3.9
COc1ccc(Cl)cc1-n1nnc(C(=O)NCCO)c1C,6.4,-0.5
CCOC(=O)c1cc(-c2ccccc2)sc1NC(=O)c1ccco1,-6.0,-4.2
COc1ccc(-n2c(N)cc(=O)nc2SC)cc1,1.2,1.3
CC(=O)Oc1c(-c2ccc(NC(=O)c3ccc(F)cc3)cc2)c(-c2cccc(C)c2)nn1-c1cc(C)ccc1C,-0.3,-0.7
CC(C)c1ccc(NC(=O)c2csc(COC(=O)c3ccccc3)n2)cc1,-4.4,0.0
Cc1cc(C)c2sc(=NC(=O)c3ccc(S(C)(=O)=O)cc3)n(C)c2c1,-0.1,2.4

In the list so far, these contain a cyano group:
Compound,NPYLR7 ag max-min,NPYLR7 ag
CCOc1ccc(C#N)cc1NCc1nc(Cc2ccccc2)no1,0.4,1.1
CCS(=O)(=O)N(C)[C@H]1c2cc(C#N)ccc2OC(C)(C)[C@@H]1O,-13.0,-8.0

(further entries)
Compound,NPYLR7 ag max-min,NPYLR7 ag
OCCn1c(SCCOc2ccc(Cl)cc2)nc2ccccc21,-9.8,-0.4
CS(=O)(=O)NC1=NCN(CCc2cccs2)CN1,4.4,4.8
CCOC(=O)c1cccc(NC(=O)N2CCC(Cc3ccc(NC(C)=O)cc3)CC2)c1,8.5,0.9
CN1CC2(CCN(CCS(=O)(=O)c3ccccc3)CC2)CC1C(=O)O (stereo unspecified),4.0,2.2
CCOC(=O)C1CCCN(C(=O)CSc2nc(Cl)cc(N3CCN(C(=O)c4ccc(F)cc4)C(C)C3)n2)C1 (stereo unspecified),4.0,-4.1
CC(C)C1CN(C(=O)c2cc(-c3ccncc3)n[nH]2)CCC(=O)N1CC1CC1 (stereo unspecified),-5.4,-0.7
COC(=O)CC(NC(=O)C1=NN(C)C(=O)CC1)c1ccc(Cl)cc1 (stereo unspecified),2.0,2.8
COC(=O)c1cc(Br)ccc1S(=O)(=O)Nc1c(F)cccc1F,12.2,5.1
CC(NC(=O)C1(Oc2ccc(Cl)cc2)CCNCC1)c1cnn(C)c1 (stereo unspecified),-2.5,-2.2
Cc1ccnc(C(NC(=O)c2ccc(O)c(Cl)c2)C2CC2)c1 (stereo unspecified),2.5,6.1
COc1ccc(CCC2CCCN(C(=O)c3ccccn3)C2)cc1 (stereo unspecified),-5.3,-6.7
CCC(=O)Nc1cccc(C(=O)NC2C=CS(=O)(=O)C2)c1 (stereo unspecified),-5.7,-2.3
CC(NCc1ccc(F)cc1)c1ccc(S(C)(=O)=O)cc1 (stereo unspecified),5.7,8.3
COc1ccccc1N1CC(NC(=O)c2cnn3ccn(C)c23)CC1=O (stereo unspecified),5.8,7.2
COCCCNc1nccc2[nH]c(-c3cccc(C(C)C)c3)nc12,-11.5,-7.1
CC(=O)Oc1ccccc1Cn1c(C)c(C(=O)NCc2ccc(Cl)c(Cl)c2)sc1=O,0.8,3.7
Cc1n[nH]c(C)c1C12CC3CC(CC(C3)C1)C2,-3.3,-2.3
COc1ccccc1/C=C/c1nc2cccc(C)n2c1NC1CCCCC1,14.6,15.0
CN1CC(=O)N2CCN(C(=O)COCC(F)(F)C(F)F)CC2C1=O (stereo unspecified),2.6,2.0
Cn1c2ccccc2n2nc(-c3ccccc3)nc12,-2.8,-1.2

At a glance, some entries already given:
Compound,NPYLR7 ag max-min,NPYLR7 ag
CN1CC(=O)N2CCN(C(=O)COCC(F)(F)C(F)F)CC2C1=O (stereo unspecified),2.6,2.0
Cn1c2ccccc2n2nc(-c3ccccc3)nc12,-2.8,-1.2

Next records follow.
Compound,NPYLR7 ag max-min,NPYLR7 ag
O=C(CCCSc1nnc(-c2ccccc2Cl)n1-c1ccc(Cl)c(Cl)c1)Nc1ccc(F)cc1,27.2,32.0
O=C(Nc1nnc(SCCc2ccccc2)s1)c1ccccc1F,-3.6,-5.9
COCCn1c(=O)c2c(nc3n(-c4ccccc4F)c(-c4ccccc4)cn23)n(C)c1=O,1.3,1.6
CCCC(=O)C1=C(c2ccc(C)c(C)c2)N(C(=O)CCC)n2c(C)nnc2S1,0.6,4.8
Fc1ccc(-c2nnc3sc(-c4ccco4)nn23)cc1,3.0,5.0
CC1(C)C=NN2C1N1N=CC(C)(C)C1N1N=CC(C)(C)C21 (stereo unspecified),-8.6,-5.7
COCc1cc(NCCc2ccc(S(C)(=O)=O)cc2)ncn1,-0.8,-0.8
O=C(/C=C/c1ccccc1)N1CCC(Cc2ccc(-n3cccc3)cc2)CC1,1.5,-1.5
c1ccc(-c2nn3c(-c4ccccc4)nnc3s2)cc1,2.2,7.8

The list is partial; the hit share may differ from the screen's.
